Compound activity (PubChem BioAssay)
Vaccinia stage: blocks a specific stage of Vaccinia orthopoxvirus infection; Vaccinia-infected cells, mCherry/Venus stage reporter fluorescence; hits give low values; some inactives read as strong as hits; activity change (mCherry), % (concentration not given with the values); hit rate 0.01% among 89,000; AID 1053133;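 active means mCherry past -33% and 40 or more points under the early reporter, replicates agreeing; inconclusive means past -33% without that gap or agreement; tested in A549 cells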;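 further: scaled between vehicle wells and reference inhibitor wells; 23 nL library stock went into each well; one replicate is shown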
Vaccinia stage Venus: also measured in Vaccinia stage; calls as there; activity change (Venus), %; measured here: Venus reporter, other viral stage;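 negative = less Venus signal; first of two replicates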
The depositor's hits bear a star; ? = inconclusive; . = no result given.

SMILES | Vaccinia stage | Vaccinia stage Venus
CN(C)C(=O)C[C@H]1CC[C@@H](NC(=O)C2CC2)[C@@H](CO)O1 | 1 | 0
COc1ccc(S(=O)(=O)N(C)C[C@H]2Oc3ccc(NS(=O)(=O)c4ccc(F)cc4)cc3C(=O)N([C@H](C)CO)C[C@H]2C)cc1 | -3 | -2
CCCNC(=O)N1CC2(C1)[C@@H](c1ccccc1)[C@@H](CO)N2C(=O)c1cccnc1 | 9 | 18
Cc1noc(C)c1S(=O)(=O)Nc1ccc2c(c1)C(=O)N([C@@H](C)CO)C[C@H](C)[C@H](CN(C)CC1CC1)O2 | 4 | 7
C[C@H](CO)N1C[C@H](C)[C@@H](CN(C)C(=O)Nc2ccc(F)cc2)Oc2ccc(NC(=O)Nc3ccc(C(F)(F)F)cc3)cc2C1=O | -10 | -8
CO[C@H]1CN(C)C(=O)c2cc(NC(C)=O)ccc2OC[C@@H](C)N(Cc2ccccn2)C[C@@H]1C | 3 | -3
Cc1ccc(S(=O)(=O)Nc2ccc3c(c2)CC(=O)N([C@@H](C)CO)C[C@H](C)[C@H](CN(C)C)O3)cc1 | -7 | -6
CC=Cc1ccc2n(c1=O)C[C@H]1[C@H](CO)[C@@H](C(=O)NCCCN(C)C)N(Cc3cocn3)[C@@H]21 (mixture of isomers) | 3 | 1
Cc1noc(C)c1NC(=O)N(C)C[C@H]1Oc2ccc(NC(=O)NC3CCCCC3)cc2CC(=O)N([C@@H](C)CO)C[C@@H]1C | 12 | 8
CN(C)C(=O)C[C@@H]1CC[C@H]2[C@@H](COC[C@H](O)CN2Cc2nccs2)O1 | 13 | 9
COc1ccccc1C(=O)N1C[C@H]2[C@@H](c3ccccc31)[C@H](CO)N2C(=O)C1CCCC1 | -1 | 5
COc1ccccc1S(=O)(=O)N(C)C[C@H]1OCc2ccccc2-c2ccccc2C(=O)N([C@@H](C)CO)C[C@@H]1C | 1 | 2
C[C@@H]1CN([C@H](C)CO)C(=O)Cc2cc(NC(=O)Nc3ccc4c(c3)OCO4)ccc2O[C@H]1CN(C)Cc1ccc2c(c1)OCO2 | -5 | -5
C[C@@H]1CN([C@@H](C)CO)C(=O)c2cccc(NC(=O)Nc3ccc4c(c3)OCO4)c2O[C@@H]1CN(C)C(=O)Nc1ccc2c(c1)OCO2 | -25 | -3
O=C(Nc1ccccc1F)N[C@@H]1CC[C@H](CCNC(=O)C2CCOCC2)O[C@@H]1CO | 6 | 5
C[C@H]1CN([C@@H](C)CO)C(=O)c2cccc(NC(=O)C3CCCCC3)c2O[C@@H]1CN(C)Cc1ccc(C(F)(F)F)cc1 | ? | .
OC[C@H]1[C@H](c2ccc(-c3ccc(F)cc3)cc2)[C@H]2CN(Cc3ccccn3)CCCCN21 | 0 | 11
N#C[C@H]1[C@H](c2ccc(-c3cncnc3)cc2)[C@@H](CO)N1C(=O)Cc1ccccc1 | 4 | 3
CN(C)CC#Cc1cccc(-c2nc(C(=O)N3CCN(C)CC3)cc3c2[C@@H](CCO)N(S(=O)C(C)(C)C)C3)c1 (some centres undefined) | 8 | 13
CCCN(C)C[C@@H]1Oc2cc(C#Cc3ccccc3OC)ccc2S(=O)(=O)N([C@H](C)CO)C[C@@H]1C | ? | .
C[C@H](CO)N1C[C@H](C)[C@@H](CN(C)CC2CCCCC2)OCc2ccccc2-c2c(n(C)c3ccccc23)C1=O | -33 | -30
C[C@H](CO)N1C[C@H](C)[C@H](CN(C)C(=O)NC2CCCCC2)Oc2cc(C#Cc3cccc(F)c3)ccc2S1(=O)=O | 5 | 6
COCC(=O)N1C[C@@H](C)[C@H](OC)CN(C)C(=O)c2cc(NC(=O)c3ccccc3)ccc2OC[C@H]1C | 17 | 7
CNC(=O)C[C@H]1CC[C@H]2[C@H](COc3ccc(NC(=O)c4ccc(F)cc4)cc3C(=O)N2C)O1 | 0 | 2
CCCN(C)C[C@@H]1Oc2ncc(-c3ccccc3OC)cc2C(=O)N([C@H](C)CO)C[C@H]1C | -7 | -4
COc1ccc(NC(=O)N2CC(=O)N3[C@@H](CO)[C@H](c4ccc(C5=CCCC5)cc4)[C@@H]3C2)cc1 | 0 | -7
O=C(Cc1cccnc1)N[C@H]1CC[C@H](CCNS(=O)(=O)c2ccccc2Cl)O[C@@H]1CO | 13 | 9
C[C@@H]1CN([C@H](C)CO)C(=O)c2cc(NS(=O)(=O)c3ccc(Cl)cc3)ccc2O[C@@H]1CN(C)C(=O)Nc1ccc2c(c1)OCO2 | 6 | 6
C[C@H]1CN([C@@H](C)CO)C(=O)c2cc(-c3ccncc3)cnc2O[C@@H]1CN(C)C(=O)c1ccncc1 | 29 | 12
CCNC(=O)[C@H]1[C@H](CO)[C@H]2Cn3c(ccc(-c4ccccc4F)c3=O)[C@H]2N1C(=O)CC | 19 | 14
CC(C)NC(=O)N(C)C[C@H]1OCCCC[C@@H](C)Oc2ccc(NC(=O)Cc3ccccc3)cc2C(=O)N([C@@H](C)CO)C[C@@H]1C | -5 | -9
CCS(=O)(=O)Nc1ccc2c(c1)C(=O)N(C)C[C@@H](OC)[C@@H](C)CN(CCC(F)(F)F)[C@@H](C)CO2 | -7 | -5
CCC(=O)N(C)C[C@H]1Oc2ncc(-c3ccc(F)cc3)cc2C(=O)N([C@@H](C)CO)C[C@@H]1C | 11 | 7
CCCC#Cc1ccc([C@H]2[C@@H](CO)N(S(=O)(=O)c3cccc(F)c3)[C@H]2C#N)cc1 | -11 | -3
Cc1noc(C)c1NC(=O)Nc1ccc2c(c1)C(=O)N([C@H](C)CO)C[C@@H](C)[C@@H](CN(C)S(=O)(=O)c1ccc(F)cc1)OCCCC[C@H](C)O2 | 22 | 18
COc1ccc(CN(C)C[C@@H]2OCCCC[C@H](C)Oc3ccc(NS(C)(=O)=O)cc3C(=O)N([C@@H](C)CO)C[C@@H]2C)cc1 | 0 | -10
CNC(=O)C[C@@H]1CC[C@H]2[C@@H](COc3ccc(NC(=O)Nc4cc(C)cc(C)c4)cc3C(=O)N2C)O1 | 1 | 2
Cc1noc(C)c1NC(=O)Nc1ccc2c(c1)C(=O)N([C@@H](C)CO)C[C@@H](C)[C@H](CN(C)C(=O)Nc1ccccc1)OCCCC[C@H](C)O2 | 27 | 18
Cc1ccc(S(=O)(=O)N(C)C[C@H]2Oc3cc(C#Cc4ccncc4)ccc3S(=O)(=O)N([C@H](C)CO)C[C@H]2C)cc1 | ? | .
C[C@H](CO)N1C[C@H](C)[C@H](CN(C)Cc2ccc(C(=O)O)cc2)OCc2ccccc2-c2c(n(C)c3ccccc23)C1=O | 27 | 32
CC(C)C#Cc1cnc2c(c1)C(=O)N([C@H](C)CO)C[C@H](C)[C@H](CN(C)C(=O)Nc1cc(F)ccc1F)O2 | -8 | -14
C[C@H](CO)N1C[C@H](C)[C@H](CN(C)C(=O)c2ccccc2)OCCCC[C@H](C)Oc2ccc(NS(=O)(=O)c3ccc(F)cc3)cc2C1=O | ? | .
O=C(C[C@@H]1C=C[C@H](NS(=O)(=O)c2ccccc2)[C@H](CO)O1)NCc1ccccc1F | 1 | -4
O=C(N[C@H]1CC[C@@H](CC(=O)N2CCc3ccccc3C2)O[C@@H]1CO)C1CC1 | 24 | 20
COc1ccc(S(=O)(=O)NC[C@@H]2CC[C@H]3[C@H](CN3Cc3cc(F)ccc3F)O2)cc1 | 4 | 9
CC(C)NC(=O)Nc1ccc2c(c1)CC(=O)N([C@@H](C)CO)C[C@H](C)[C@@H](CN(C)Cc1ccc(C(=O)O)cc1)O2 | 16 | 12
C[C@H](CO)N1C[C@H](C)[C@H](CN(C)C(=O)Nc2cccc3ccccc23)OCCCC[C@H](C)Oc2ccc(NS(=O)(=O)c3ccc(Cl)cc3)cc2C1=O | -6 | 4
Cc1ccc(S(=O)(=O)Nc2ccc3c(c2)C(=O)N([C@@H](C)CO)C[C@@H](C)[C@@H](CN(C)C(=O)Nc2c(C)noc2C)OCCCC[C@H](C)O3)cc1 | 23 | 10
C[C@@H]1CN([C@H](C)CO)C(=O)Cc2cc(NC(=O)Cc3ccccc3)ccc2O[C@H]1CN(C)Cc1ccc(-c2ccccc2)cc1 | -25 | -10
O=C(Nc1ccccc1)[C@@H]1[C@@H](CO)[C@@H]2Cn3c(cccc3=O)[C@@H]2N1C(=O)C1CC1 | 9 | 7
C[C@H](CO)N1C[C@H](C)[C@H](CN(C)C)Oc2cc(-c3ccc(C#N)cc3)ccc2S1(=O)=O | -8 | -3
Cc1noc(C)c1NC(=O)Nc1ccc2c(c1)C(=O)N([C@@H](C)CO)C[C@@H](C)[C@H](CN(C)C(=O)CCCN(C)C)OCCCC[C@H](C)O2 | 6 | -2
C[C@H](CO)N1C[C@H](C)[C@H](CN(C)C(=O)Nc2ccc(C(F)(F)F)cc2)Oc2c(NC(=O)NC3CCCCC3)cccc2C1=O | ? | .
C[C@H](CO)N1C[C@H](C)[C@@H](CN(C)S(C)(=O)=O)Oc2ncc(C#Cc3ccccc3F)cc2C1=O | -9 | -10
CC(C)NC(=O)Nc1ccc2c(c1)C(=O)N([C@H](C)CO)C[C@H](C)[C@H](CN(C)CC1CCCCC1)OCCCC[C@H](C)O2 | -8 | -6
C[C@@H]1CN([C@@H](C)CO)C(=O)c2cc(C#CCc3ccccc3)cnc2O[C@H]1CN(C)Cc1ccccc1 | ? | .
COc1cccc(S(=O)(=O)N[C@H]2CC[C@@H](CC(=O)NC3Cc4ccccc4C3)O[C@H]2CO)c1 | -7 | -3
COc1ccccc1NC(=O)N1C[C@@H](C)[C@H](OC)CN(C)C(=O)c2ccc(NC(=O)c3ccccn3)cc2OC[C@H]1C | 9 | 7
COc1ccc(NC(=O)N(C)C[C@H]2Oc3c(NC(=O)c4cc(C)nn4C)cccc3C(=O)N([C@H](C)CO)C[C@@H]2C)cc1 | 25 | 13
C[C@@H]1CCCCO[C@H](CN(C)C(=O)Nc2ccc3c(c2)OCO3)[C@@H](C)CN([C@@H](C)CO)C(=O)c2cc(N(C)C)ccc2O1 | 10 | 9
Carrying on.
SMILES | Vaccinia stage | Vaccinia stage Venus
CC(C)(O)C#Cc1ccc([C@@H]2[C@H](CO)N3CCCCN(C(=O)c4ccc(F)cc4)C[C@@H]23)cc1 | 15 | 0
COc1ccc(NC(=O)Nc2ccc3c(c2)C(=O)N([C@H](C)CO)C[C@@H](C)[C@H](CN(C)S(=O)(=O)c2ccccc2)OCCCC[C@H](C)O3)cc1 | -5 | 1
Cc1ccc(S(=O)(=O)N(C)C[C@@H]2Oc3ccc(N(C)C)cc3CC(=O)N([C@@H](C)CO)C[C@@H]2C)cc1 | -2 | -9
C[C@H](NC(=O)C[C@@H]1CC[C@H](NC(=O)CN2CCOCC2)[C@@H](CO)O1)c1ccccc1 | 5 | 4
C[C@H](CO)N1C[C@H](C)[C@H](CN(C)S(=O)(=O)c2cccs2)Oc2ccc(NC(=O)C3CC3)cc2CC1=O | 9 | 13
C/C=C/c1ccc([C@@H]2[C@@H](CO)N(C(C)=O)[C@H]2CNC(=O)c2ccccc2)cc1 | -6 | -1
CC(C)NC(=O)N(C)C[C@H]1Oc2ccc(N(C)C)cc2C(=O)N([C@@H](C)CO)C[C@@H]1C | 6 | 8
CO[C@@H]1CN(C)C(=O)c2ccc(NC(=O)c3ccccc3F)cc2OC[C@H](C)N(C(C)=O)C[C@H]1C | 8 | 6
C[C@@H]1CN([C@@H](C)CO)C(=O)c2cc(NS(=O)(=O)c3cn(C)cn3)ccc2O[C@@H](C)CCCCO[C@H]1CN(C)C(=O)c1ccncc1 | 31 | 22
CN1c2ccc(-c3cccc(C#N)c3)cc2[C@H]2[C@H](CCN2C(=O)C2CCCC2)[C@H]1CO | ? | .
N#C[C@H]1[C@H](c2ccccc2C2=CCCC2)[C@@H](CO)N1C(=O)NC1CCCC1 | -26 | -18
O=C(C1CCCC1)N1CC2(C1)[C@@H](c1ccccc1)[C@@H](CO)N2CC1CC1 | -8 | -2
Cc1noc(C)c1S(=O)(=O)N(C)C[C@@H]1OCc2ccccc2-c2ccccc2C(=O)N([C@@H](C)CO)C[C@@H]1C | 17 | 0
COc1ccc2c3c([nH]c2c1)[C@H](CO)N(C(=O)c1ccncc1)CC31CCN(Cc2cccnc2)CC1 | 18 | 15
C[C@H](C(=O)N(C)C[C@@H]1OCc2ccccc2-c2ccccc2C(=O)N([C@H](C)CO)C[C@H]1C)c1ccccc1 | 25 | 8
COCC(=O)N1C[C@@H](C)[C@H](OC)CN(C)C(=O)c2ccc(NC(=O)c3ccc(F)cc3)cc2OC[C@H]1C | 3 | 0

10 of the compounds above, in markdown:
| Molecule | Vaccinia stage | Vaccinia stage Venus |
| --- | --- | --- |
| CC(C)NC(=O)N(C)C[C@H]1Oc2ccc(N(C)C)cc2C(=O)N([C@@H](C)CO)C[C@@H]1C | 6 | 8 |
| CO[C@@H]1CN(C)C(=O)c2ccc(NC(=O)c3ccccc3F)cc2OC[C@H](C)N(C(C)=O)C[C@H]1C | 8 | 6 |
| C[C@@H]1CN([C@@H](C)CO)C(=O)c2cc(NS(=O)(=O)c3cn(C)cn3)ccc2O[C@@H](C)CCCCO[C@H]1CN(C)C(=O)c1ccncc1 | 31 | 22 |
| CN1c2ccc(-c3cccc(C#N)c3)cc2[C@H]2[C@H](CCN2C(=O)C2CCCC2)[C@H]1CO | ? | . |
| N#C[C@H]1[C@H](c2ccccc2C2=CCCC2)[C@@H](CO)N1C(=O)NC1CCCC1 | -26 | -18 |
| O=C(C1CCCC1)N1CC2(C1)[C@@H](c1ccccc1)[C@@H](CO)N2CC1CC1 | -8 | -2 |
| Cc1noc(C)c1S(=O)(=O)N(C)C[C@@H]1OCc2ccccc2-c2ccccc2C(=O)N([C@@H](C)CO)C[C@@H]1C | 17 | 0 |
| COc1ccc2c3c([nH]c2c1)[C@H](CO)N(C(=O)c1ccncc1)CC31CCN(Cc2cccnc2)CC1 | 18 | 15 |
| C[C@H](C(=O)N(C)C[C@@H]1OCc2ccccc2-c2ccccc2C(=O)N([C@H](C)CO)C[C@H]1C)c1ccccc1 | 25 | 8 |
| COCC(=O)N1C[C@@H](C)[C@H](OC)CN(C)C(=O)c2ccc(NC(=O)c3ccc(F)cc3)cc2OC[C@H]1C | 3 | 0 |

An excerpt, so the mix of outcomes need not match the whole.
